From PubChem BioAssay
KCNQ2 inh: KCNQ2 potassium channel inhibitors, primary screen, cell-based, CHO-K1, FluxOR thallium flux, B-score (AID 2156); B-score at 10 µM; 20 min; active compounds read low; only compounds with negative scores are shown here; some inactives read as strong as hits; hit rate 1.1% among 310,000; Potassium voltage-gated channel subfamily KQT member 2 (Rattus norvegicus), O88943;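 active means fluorescence ratio B-score at most minus 3 library SDs, with starting brightness B-score within 2 library SDs, cut at about -5.5 in these data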
Target sequence (O88943 whole entry, looked up): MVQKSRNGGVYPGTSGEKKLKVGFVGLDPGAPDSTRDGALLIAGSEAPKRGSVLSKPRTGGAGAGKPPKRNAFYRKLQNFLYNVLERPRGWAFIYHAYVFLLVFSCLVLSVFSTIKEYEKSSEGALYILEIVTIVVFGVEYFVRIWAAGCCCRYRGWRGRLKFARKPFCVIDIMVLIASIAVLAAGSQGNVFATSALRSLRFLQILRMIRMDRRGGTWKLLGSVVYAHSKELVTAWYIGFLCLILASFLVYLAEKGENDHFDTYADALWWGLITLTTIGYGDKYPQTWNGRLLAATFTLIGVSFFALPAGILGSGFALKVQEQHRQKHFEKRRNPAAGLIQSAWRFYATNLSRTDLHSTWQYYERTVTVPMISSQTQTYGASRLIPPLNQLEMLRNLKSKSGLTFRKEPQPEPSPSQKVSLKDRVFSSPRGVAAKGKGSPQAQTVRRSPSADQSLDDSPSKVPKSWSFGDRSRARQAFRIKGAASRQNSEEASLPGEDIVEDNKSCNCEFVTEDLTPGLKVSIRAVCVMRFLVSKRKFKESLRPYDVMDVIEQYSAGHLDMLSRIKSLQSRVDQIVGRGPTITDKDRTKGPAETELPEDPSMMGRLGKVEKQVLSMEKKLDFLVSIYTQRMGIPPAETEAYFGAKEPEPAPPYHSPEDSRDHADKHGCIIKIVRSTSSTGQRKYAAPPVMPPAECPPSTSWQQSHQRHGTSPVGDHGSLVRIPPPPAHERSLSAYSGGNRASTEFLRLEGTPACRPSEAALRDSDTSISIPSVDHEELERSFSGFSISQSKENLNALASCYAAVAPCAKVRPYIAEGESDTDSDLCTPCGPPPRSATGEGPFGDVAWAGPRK
KCNQ2 inh baseline: second read-out of KCNQ2 inh, no call of its own (marks repeat the call); B-score; measured here: initial fluorescence intensity artifact check;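 brightness before thallium and not channel activity; 0 = typical well and far values either way flag optical interference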
* = called active by the depositor; i = inactive. Not all compounds are listed; the hit share may differ from the screen's.

KCNQ2 inh	KCNQ2 inh baseline	mol
i	2.9	CCNC(=S)N1CCC(C(O)(c2ccccc2)c2ccccc2)CC1
i	2.2	CC(=O)c1cc2c(cc1NC(=O)CCn1cccc1)OCO2
-5.7*	-1.6*	C/C(=N\NC(=O)c1nnn(-c2nonc2N)c1CN1CCC(C)CC1)c1cccc(Br)c1
i	-1.4	COc1ccc(C(=O)N2CCN(C3CCCCC3)CC2)cc1OC
i	4	N#CC1=C(N)Oc2cc(N)ccc2C1c1ccc(F)cc1F (configuration not stated)
i	-1.8	COc1ccc(-n2cnnc2SCC(=O)N(C)c2ccccc2)cc1
i	1.4	COc1ccc(CN2CCOC2=O)cc1OC
i	0.85	NC(=O)CSc1nnc(-c2ccco2)n1N
i	0.01	COc1cccc(C2CC(c3ccccc3)=NN2S(=O)(=O)c2ccccc2)c1OC (configuration not stated)
i	-0.05	COc1ccc2[nH]c(C(=O)NCc3ccc4c(c3)OCO4)cc2c1
i	-0.35	COc1ccc(Cl)cc1NC(=O)CCS(=O)(=O)c1ccc(Br)cc1
i	0.32	COc1ccccc1N(C)S(=O)(=O)c1ccc(Cl)c(C(=O)N2CCC2)c1
i	-0.6	CC(C)Cn1c(C(C)C)nc([N+](=O)[O-])c1S(=O)(=O)c1ccc(F)cc1
i	-0.51	CN(Cc1cccnc1)Cc1cn(C)nc1-c1cccc(Cl)c1
i	0.19	CSc1nc(C)cc(SCC(=O)Nc2ccc(Cl)cc2Cl)n1
i	-1.6	O=C1CN(C(=O)CSc2nc3ccccc3n2CCc2ccccc2)c2ccccc2N1
i	0.52	Cc1ccc(S(=O)(=O)CC(=O)N(C)C)cc1
i	-3.3	O=C(Nc1cccc(C(F)(F)F)c1)C(Sc1ncnc2ccccc12)c1ccccc1 (configuration not stated)
i	0.89	Cc1ccc(CC2CC(=O)N(c3ncccn3)C2=O)cc1 (configuration not stated)
i	2.5	COc1ccc(-n2cnnc2SCc2csc(-c3ccccc3)n2)cc1

7 records picked at random from the list so far:
KCNQ2 inh	KCNQ2 inh baseline	mol
i	-0.05	COc1ccc2[nH]c(C(=O)NCc3ccc4c(c3)OCO4)cc2c1
i	1.4	COc1ccc(CN2CCOC2=O)cc1OC
i	0.01	COc1cccc(C2CC(c3ccccc3)=NN2S(=O)(=O)c2ccccc2)c1OC (configuration not stated)
i	2.9	CCNC(=S)N1CCC(C(O)(c2ccccc2)c2ccccc2)CC1
i	-1.8	COc1ccc(-n2cnnc2SCC(=O)N(C)c2ccccc2)cc1
i	0.89	Cc1ccc(CC2CC(=O)N(c3ncccn3)C2=O)cc1 (configuration not stated)
i	-1.4	COc1ccc(C(=O)N2CCN(C3CCCCC3)CC2)cc1OC

Remaining list, next part:
KCNQ2 inh	KCNQ2 inh baseline	mol
i	0.06	CN(C)c1ccc(C2CC(=O)C=C(Nc3ccccc3N)C2)cc1 (configuration not stated)
i	-0.04	CCc1ccc(OCC(=O)NNC(=S)NC(=O)C2CC2)c(Br)c1
i	0.51	O=C(c1ccc(S(=O)(=O)N2CCCC2)cc1)N1CCCCC1
i	0.54	Cc1cc(-c2cc(-c3ccc(Cl)cc3)nc(N)c2C#N)co1
-6.2*	-0.62*	COc1ccccc1N1CCN(/N=C\c2sccc2C)CC1
i	1.8	COc1ccc(-c2cc(C(=O)N3CCCc4ccccc43)no2)cc1OC
i	0.51	CCOC(=O)Nc1ccccc1C(=O)Nc1cc(C)cc(C)c1
i	-0.64	O=C(N/N=C/c1c[nH]c2c1ccc1ccccc12)c1ccc([N+](=O)[O-])cc1
i	1.2	Cc1[nH]c2ccc(C(=O)NCCCN3CCOCC3)cc2c1C
i	-1.2	Cc1cc(C(F)F)n2ncc(C(=O)NCCc3ccc(Cl)cc3)c2n1
i	-0.37	CCc1nn(C(CC)C(=O)NCc2cccc(OC)c2OC)c(=O)c2cc3occc3n12 (configuration not stated)
i	0.66	COc1ccc(Nc2cnn(-c3nc4ccccc4s3)c(=O)c2Cl)cc1
i	-0.45	COc1ccc(-c2nc(-c3ccc4c(c3)OCO4)[nH]c2-c2ccc(OC)cc2)cc1
i	-0.8	Cc1c(NC(=O)Nc2ccccc2C(F)(F)F)c(=O)n(-c2ccccc2)n1C
i	1.2	O=C(Nc1ccccc1C(F)(F)F)c1cc(-c2cccc(O)c2)on1
i	0.67	Cc1c(C(=O)Nc2ccc3c(c2)CCC3)cccc1[N+](=O)[O-]
i	-0.48	COCCNC(=O)/C(C#N)=C\c1ccc(CNS(=O)(=O)c2ccc(C)cc2)o1
i	-2.3	COc1ccc(N2CCN(C(=O)c3ccc(CS(=O)(=O)c4ccc(OC)cc4)o3)CC2)cc1
i	-1.7	CC(C)CCNC(=O)C(C)N(Cc1ccc(F)cc1)C(=O)c1ccc(CN2CCCCC2)o1 (configuration not stated)
i	-1.4	CCCCNC(=O)N(C)c1nc2ccccc2s1
i	-0.86	Cc1cc(C)c2nc(N(CCCN(C)C)C(=O)c3ccc(S(=O)(=O)N4CC(C)OC(C)C4)cc3)sc2c1 (configuration not stated)
i	-0.71	CCOC(=O)N1CCN(CC(=O)Nc2c(C(=O)OC)[nH]c3cc(C)ccc23)CC1
-7.7*	-0.71*	c1ccc(-c2cc3c(N4CCN(c5ccccc5)CC4)ncnc3s2)cc1
i	1.9	CN(CCCNC(=O)C1CCC(CNS(=O)(=O)c2ccccc2)CC1)Cc1ccccc1 (configuration not stated)
i	0.01	N#Cc1cc(NC(=O)c2ccc(F)cc2)c(=O)n2c1[nH]c1ccccc12
i	-0.43	COC(=O)c1c(C)oc(C)c1S(=O)(=O)NCc1ccc(Cl)cc1
i	0.19	O=C(Cn1cnc2ccccc21)c1ccccc1
i	1	C/C=C/c1ccc(OCCOc2ccc(C=O)cc2OC)c(OC)c1
i	0.27	CCN(CC)CCC(c1ccc2c(c1)OCO2)c1c(OC)cc(OC)c2c(-c3ccccc3)cc(=O)oc12 (configuration not stated)
i	0.66	COc1ccc2c(CN(C)c3ccccc3)cc(=O)oc2c1
i	3.1	O=C(CC1CCCCC1)NCC1CCCO1 (configuration not stated)
i	-0.35	CCC(C)(C(=O)NC1CCCC1)N(Cc1ccco1)C(=O)Cc1cccs1 (configuration not stated)
i	-2.1	O=C(CCc1ccccc1)N1CCN(Cc2ccc(F)cc2Cl)CC1
i	-0.65	COc1ccc(C(CNc2ccc(C(F)(F)F)cn2)N(C)C)cc1OC (configuration not stated)
i	0.61	Cc1cc(-c2nnc3sc(C4CCCCC4)nn23)n[nH]1
i	1.9	CC(=O)Nc1ccc(N(C(=O)Cc2c[nH]c3ccccc23)C(C(=O)NC2CCCCC2)c2ccco2)cc1 (configuration not stated)
i	-0.19	CCCn1nc(NC(=O)c2ccccn2)c2cc3cc(C)ccc3nc21
i	-0.26	CNC(=S)NNC(=O)c1sc(-c2cc(C)on2)nc1C
i	-2	CN(C)c1ccc(NC(=O)CCn2c(=S)oc3ccccc32)cc1
i	2.2	N#CCCN(C(=O)COC(=O)CNC(=O)c1ccc(-c2ccccc2)cc1)c1ccc(F)cc1
i	-0.36	CC(=O)O[C@H]1CC[C@H]2[C@@H]3CCc4cc(O)ccc4[C@H]3CC[C@]12C
i	-1.5	CN1CCN(NC(=S)Nc2ccc(Oc3ccccc3)cc2)CC1
i	-1.2	C/C(=N\NC(=O)c1c(Cl)c(C)nn1C)c1ccc(NC(=O)C2CCC2)cc1
i	-0.03	Cc1ccc2c(C)c(C(=O)N3CCN(Cc4ccccn4)CC3)oc2c1C
i	0.68	Cc1ccc(C(=O)NN2C(=O)/C(=C/c3cccn3C)SC2=S)cc1
i	-0.06	CC(=O)c1cccc(OCc2cc(C(=O)NCCC3=CCCCC3)no2)c1
i	-0.53	O=C(CSc1nnc(CN2CCCCCC2=O)n1-c1ccccn1)NCC(F)(F)F
i	0.51	COc1ccc(-c2csc(Nc3ccccc3)[n+]2CC(O)c2ccc([N+](=O)[O-])cc2)cc1 (configuration not stated)
i	0.18	Cc1ccc(S(=O)(=O)NNC(=S)NC(=O)c2ccc([N+](=O)[O-])cc2)cc1
i	3.1	Cc1cc(NC2CCCC2)n2ncc(-c3ccccc3)c2n1
i	-0.19	CCOC(=O)N1CCN(C2CCCN(C(=O)c3ccccc3C(F)(F)F)C2)CC1 (configuration not stated)
i	0.48	CCOc1ccc(CNC(=O)C2CCCN(c3nnc(C)c4c(C)n(-c5ccccc5)nc34)C2)cc1 (configuration not stated)
i	0.98	COc1cc(OC)cc(C(=O)N/N=C/c2ccc(OC)c(COc3ccc(F)cc3)c2)c1
i	-0.2	Cc1ccc(NC(=O)CNc2cccc(C)c2C)c(C)c1
i	-0.93	N#C/C(=C\c1ccncc1)c1nc2ccccc2[nH]1
i	0.78	CCOc1ccccc1NC(=O)C1CCCN(C(=O)Nc2ccccc2)C1 (configuration not stated)
i	0.15	CCOC(=O)c1nn(-c2ccccc2F)c2nc(Nc3ccccc3)cc(=O)n12
i	-0.56	CCOC(=O)c1c(C)[nH]c(NC(=O)Nc2c(C)n(C)n(-c3ccccc3)c2=O)c1C
i	0.45	O=C(CCCCCNC(=O)N1CCn2c1nc1ccccc12)NCCc1ccccc1
i	-0.91	COc1ccc(-c2noc(N3CCC(C(=O)Nc4ccc(OC)cc4OC)CC3)n2)cc1

Remaining list, next part.
KCNQ2 inh	KCNQ2 inh baseline	mol
i	0.2	COCCN1C(=S)NC(c2cccc(C(F)(F)F)c2)C(C(=O)N2CCOCC2)=C1C (configuration not stated)
i	-0.93	CCc1cc(=O)oc2cc(OCC(=O)N(CC)CC)c(Cl)cc12
i	1.4	COc1ccc(OC)c(NC(=O)C(=O)N/N=C(\C)CC(=O)Nc2ccc(Cl)cn2)c1
i	0.3	Cc1c(C)n2c(SCC(=O)NC3CCCC3)nnc2[nH]c1=O
i	-0.14	Cc1cccc(C)c1-n1nnnc1C(C)(C)N1CCN(N=O)CC1
i	1.8	CC(C)NC(=O)Cn1c(SCC(=O)c2ccc(F)cc2)nc2ccccc21
i	-0.77	COc1cc2c(cc1OC)C(C)N(CC(=O)Nc1ccc(S(=O)(=O)N3CCCC3)cc1)CC2 (configuration not stated)
i	1.9	O=C(O)c1ccc2cccnc2c1O
i	2	Cc1cc(C)c(N(C(=O)Cn2nnc3ccccc32)C(C(=O)NC(C)(C)C)c2ccsc2)c(C)c1 (configuration not stated)
i	-0.59	O=C1/C(=C/c2ccncc2)SC(=S)N1Nc1ccccc1
i	1.9	COc1ccc(NC(=O)CCc2nnc3ccc(N4CCC(C)CC4)nn23)cc1
i	-0.82	CCOC(=O)C1CCN(C(=O)CNC(=O)c2nn(-c3ccc(OC)c(OC)c3)c(=O)c3ccccc23)CC1
i	2.3	FC(F)(F)c1nc2ccccc2c2nc3ccccc3n12
i	0.79	Oc1c(C(c2ccc(F)cc2)N2CCc3ccccc3C2)sc2ncnn12 (configuration not stated)
i	0.35	CCOc1ccc(CCNC(=O)C2CCN(S(=O)(=O)CC)CC2)cc1OCC
i	0.4	CC(=O)Nc1ccccc1NC(=O)C/C(C)=N/NC(=O)c1ccccn1
i	-0.16	CC(C(=O)NCCCc1ccccc1)n1cccc1C(=O)c1ccccc1 (configuration not stated)
i	0.53	CCc1c(C(=O)NNC(=S)Nc2ccc(S(=O)(=O)Nc3ncccn3)cc2)csc1C
i	0.49	C=CCC1(CC=C)CCCN1C(=O)c1cc(COc2ccc(F)c(F)c2)on1
i	-2.4	CCOC(=O)C1(Cc2cccc(OC)c2)CCN(Cc2cccc(OC)c2OC)CC1
i	0.05	Cc1cc2cc(C(c3nnnn3Cc3ccco3)N3CCc4ccccc4C3)c(=O)[nH]c2cc1C (configuration not stated)
i	-0.03	Fc1ccccc1-c1csc(=Nc2cccnc2)n1CC1CCCO1 (configuration not stated)
i	0.3	Cc1ccc(OCC(=O)Nc2cccc(S(=O)(=O)N3CCCCC3)c2)c([N+](=O)[O-])n1
i	-0.68	O=C(NCc1cccs1)C(=O)NCC1OCCCN1S(=O)(=O)c1cccs1 (configuration not stated)
i	0.67	CCOC(=O)/C=C/C(=O)OCC(=O)Nc1ccc([N+](=O)[O-])cc1
i	0.33	O=C(Nc1nnc(-c2ccco2)s1)C1CCCCC1
i	0.79	CCCn1c(SCC(=O)Nc2cc(S(=O)(=O)N(C)C)ccc2OC)n[nH]c1=O
i	0.07	Cc1cc(NC(=O)CCC(=O)N(CC(=O)NC2CCCC2)c2ccc(C)c(F)c2)no1
i	1.1	O=C(c1ccc2c(c1)OCO2)C1CCCN(C(=O)c2cnn(Cc3ccccc3)c2)C1 (configuration not stated)
i	0.4	CC(C)(C)OC(=O)N[C@@H](Cc1ccccc1)[C@H](O)c1ccco1
i	-0.41	Cc1ccc(C(=O)NC(=S)NCc2ccccc2)cc1
i	-0.06	CC(C(=O)NCc1ccc2c(c1)OCO2)c1ccc([N+](=O)[O-])cc1 (configuration not stated)
i	-0.34	Cc1cc(S(=O)(=O)Nc2ccc(C(=O)NCCCN3CCOCC3)cc2)ccc1F
i	-0.82	CCOc1ncccc1C(=O)OCc1ccc(C#N)cc1
i	-0.38	CCCc1cc(=O)oc2cc(OCc3cccc(OC)c3)c(Cl)cc12

Already shown: an excerpt of the list.
KCNQ2 inh	KCNQ2 inh baseline	mol
i	0.67	CCOC(=O)/C=C/C(=O)OCC(=O)Nc1ccc([N+](=O)[O-])cc1
i	0.33	O=C(Nc1nnc(-c2ccco2)s1)C1CCCCC1
i	0.79	CCCn1c(SCC(=O)Nc2cc(S(=O)(=O)N(C)C)ccc2OC)n[nH]c1=O
i	0.07	Cc1cc(NC(=O)CCC(=O)N(CC(=O)NC2CCCC2)c2ccc(C)c(F)c2)no1
